Screening results from PubChem.
PV pol inh: inhibitors of poliovirus RNA polymerase binding and polymerization; AID 588519; 0.66% of 150,000 active; % elongation, % (compound at 16.7 µg/mL); poliovirus polymerase elongation, fluorescence polarization; active compounds read low; in the data active = % elongation below about 90%; note: some results filed as inactive read as strong as hits
Target sequence (P03300 1749-2209 limits assumed): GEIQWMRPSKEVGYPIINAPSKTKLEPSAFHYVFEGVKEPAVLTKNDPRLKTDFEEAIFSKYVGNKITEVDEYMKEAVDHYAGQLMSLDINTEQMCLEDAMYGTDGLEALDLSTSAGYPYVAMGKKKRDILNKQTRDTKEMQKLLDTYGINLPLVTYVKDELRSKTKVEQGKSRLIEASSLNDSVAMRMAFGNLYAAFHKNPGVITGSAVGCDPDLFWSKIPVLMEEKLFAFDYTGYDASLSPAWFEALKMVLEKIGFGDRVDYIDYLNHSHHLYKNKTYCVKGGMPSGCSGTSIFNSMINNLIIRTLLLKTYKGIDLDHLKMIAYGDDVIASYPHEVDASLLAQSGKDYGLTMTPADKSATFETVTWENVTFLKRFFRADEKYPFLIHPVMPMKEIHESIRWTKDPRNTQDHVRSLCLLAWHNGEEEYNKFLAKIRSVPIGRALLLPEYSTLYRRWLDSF
PV pol inh intensity: recorded beside PV pol inh, whose call it bears; % elongation; measured here: total intensity read-out; formula for this scale not given here;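 total fluorescence in place of polarization; lower means less elongation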
Numbers without * were called inactive.

1) Cc1ccccc1-c1nn2c(=O)cc(CN3CCN(C(=O)c4ccc(C(C)(C)C)cc4)CC3)nc2s1
2) CCC(C)NC(=O)c1ccc2nc(Cc3ccccc3)oc2c1 (stereo not given)
3) Cc1ccc2[nH]cc(C(c3ccccc3)c3cccs3)c2c1 (stereo not given)
4) Cc1cccc(-n2c3nc(=O)[nH]c(=O)c-3cc3c(C)nn(-c4ccccc4)c32)c1C
5) CCOc1ccc(NC(=O)c2cc3c(-c4ccccc4F)nn(C)c3s2)cc1
Compound	1	2	3	4	5
PV pol inh intensity	107.0	109.0	105.0	110.0	106.0
PV pol inh	105.0	106.0	108.0	108.0	108.0

6) COc1cc(Nc2nc(-c3ccc(OC)c(OC)c3)nc3ccccc23)cc(OC)c1
7) O=C(Nc1ccon1)c1cccn(Cc2cccc(Cl)c2)c1=O
8) CC1CCCN(CCCNC(=O)c2ccc3c(c2)N(Cc2cccc(Cl)c2)C(=O)c2ccccc2S3(=O)=O)C1 (stereo not given)
9) Cc1nnsc1C(=O)Oc1ccccc1Cl
10) CCCCOc1ccc(C(=O)N2CCCCC2CCN2CCOCC2)cc1 (stereo not given)
Compound	6	7	8	9	10
PV pol inh intensity	107.0	103.0	106.0	98.0	102.0
PV pol inh	107.0	105.0	109.0	98.0	107.0

11) CCn1c(=O)n(-c2ccc3c(c2)OCO3)c2nc(-c3cc(OC)ccc3OC)nc(C(N)=O)c21
12) CCc1ccccc1NC(=O)COC(=O)c1cn(CC)c2nc(C)ccc2c1=O
13) COC(=O)c1ccc(C2Nc3c(C)cccc3-c3cc(C)nn32)cc1 (stereo not given)
14) Cc1ccccc1NC(=O)Cn1cc(S(=O)(=O)c2ccccc2)c(=O)c2ccccc21
15) COC(=O)c1cc2occc2n1Cc1nc(-c2ccc(C)cc2)oc1C
Compound	11	12	13	14	15
PV pol inh intensity	108.0	103.0	104.0	106.0	110.0
PV pol inh	110.0	101.0	106.0	104.0	105.0

16) O=C(CSC1=Nc2ccccc2N=C(c2ccc(F)cc2)C1)NCc1ccc(F)cc1
17) COc1ccc(CNC(=O)c2cc(-c3ccc(OC)cc3)on2)cc1
18) CCOc1ccc(-c2cn3c(n2)sc2cc(C(=O)NCCCc4ccccc4)ccc23)cc1
19) CCOC(=O)c1cnc(N2CCN(c3ccc(C)cc3C)CC2)c2ccccc12
20) CC1CCN(c2oc(-c3ccc(COc4ccccc4)o3)nc2C#N)CC1
Compound	16	17	18	19	20
PV pol inh intensity	110.0	97.0	105.0	115.0	104.0
PV pol inh	110.0	100.0	109.0	114.0	111.0

21) CCOc1ccccc1C1N=C(N)Nc2nc3ccccc3n21 (stereo not given)
22) Cc1cc2ncn(CCCCOc3ccccc3)c2cc1C
23) Cc1nnc(SCc2ccc(Cl)cc2)c2cc3occc3n12
24) Cc1oc(-c2ccc(Cl)cc2)nc1CN1CCC(C(=O)NCCCN2CCN(c3cccc(Cl)c3)CC2)CC1
25) COc1ccc(C)cc1NC(=O)Nc1ccccc1OCc1cc(=O)n2ccccc2n1
Compound	21	22	23	24	25
PV pol inh intensity	106.0	108.0	107.0	111.0	104.0
PV pol inh	106.0	108.0	106.0	108.0	99.0

26) Cc1noc(C)c1S(=O)(=O)N(CC(=O)Nc1ccc(C(F)(F)F)cc1)c1ccc(C(C)C)cc1
27) CCc1ccc(CNC(=O)CCCN2C(=O)c3cccnc3Oc3ccc(Cl)cc32)cc1
28) CCCCC(=O)N1CCN(c2nc3c(C)c(C)ccc3s2)CC1
29) COc1cc(Nc2ncc3c(n2)CCN(Cc2cccc(C)c2)C3)cc(OC)c1
30) O=C(CS(=O)(=O)c1nc(-c2ccc(Cl)cc2)cn1-c1ccccc1)Nc1ccc(F)cc1F
Compound	26	27	28	29	30
PV pol inh intensity	102.0	112.0	116.0	109.0	97.0
PV pol inh	104.0	111.0	111.0	108.0	96.0

31) Cc1nc2sc(C(=O)N(C)c3ccccc3)c(NC(=O)c3ccccc3Cl)c2c(C)c1C
32) O=C(O)c1c2c(nc3ccc(S(=O)(=O)N4CCC(C(=O)NCc5ccc(Cl)cc5)CC4)cc13)CCCC2
33) Cn1nc(C(=O)N2CCN(c3ccccc3F)CC2)c2c1-c1ccccc1SC2
34) CC(=O)Nc1cccc(C(=O)NCc2ccc3c(c2)CCN3C(C)=O)c1
35) Cc1cccc(NC(=O)CSc2nc(=O)n(CCN3CCOCC3)c3c2CCC3)c1C
Compound	31	32	33	34	35
PV pol inh intensity	105.0	111.0	103.0	104.0	100.0
PV pol inh	103.0	105.0	106.0	98.0	101.0

36) CC(C)NC(=O)c1ccc(Cn2c(SCc3ccc(F)cc3)nc3cccnc32)cc1
37) CCOC(=O)c1ccccc1NC(=O)CN(c1ccccc1)S(=O)(=O)c1ccc(OCC)cc1
38) O=C(Cn1c(=O)n(Cc2ccc(C(=O)NCc3ccc4c(c3)OCO4)cc2)c(=O)c2ccccc21)Nc1ccc(F)cc1F
39) CC(CNC(=O)CN1C(=O)c2cccnc2Oc2ccc(Cl)cc21)c1ccccc1 (stereo not given)
40) COc1ccc(-c2noc(N3CCN(c4cccc(C)c4C)CC3)n2)cc1OC
Compound	36	37	38	39	40
PV pol inh intensity	104.0	109.0	111.0	113.0	108.0
PV pol inh	100.0	107.0	108.0	114.0	109.0

41) CC(C)(C)C1CCc2c(sc3nc(-c4cc5cc(Br)ccc5oc4=O)[nH]c(=O)c23)C1 (stereo not given)
42) CCCn1c2ccccc2c2cnn(CC(=O)NCC3CCN(Cc4ccc(F)cc4)CC3)c(=O)c21
43) O=C(NCc1ccccc1)c1ccc2c(c1)CCN2S(=O)(=O)c1ccc(Cl)cc1
44) Cc1ccc(-n2ncc(C(=O)NCCN3CCc4ccccc4C3)c2C2CCNCC2)cc1C
45) CCOc1ccc(NCc2cccn2-c2nnc(N3CCC(C(=O)NCc4ccccc4Cl)CC3)s2)cc1
Compound	41	42	43	44	45
PV pol inh intensity	103.0	113.0	112.0	106.0	113.0
PV pol inh	99.0	110.0	110.0	103.0	106.0

46) CCOC(=O)c1cc2c(=O)n3ccccc3nc2n(CC2CCCO2)c1=NC(=O)c1ccc(C(C)(C)C)cc1 (stereo not given)
47) COC(=O)CC1Oc2ccc(C)cc2-n2cc(-c3ccc(C)cc3)nc21 (stereo not given)
48) CCc1ccc(NC(=O)CSc2nc3ccccc3c(=O)n2CCNC(C)=O)cc1
49) CC(C)(Oc1ccc(Cl)cc1)C(=O)Nc1cccc(-c2cn3cccnc3n2)c1
50) COc1ccc(C(=O)N2CCC(c3nc4ccccc4s3)CC2)cc1Cl
Compound	46	47	48	49	50
PV pol inh intensity	110.0	109.0	102.0	106.0	109.0
PV pol inh	109.0	103.0	104.0	108.0	108.0

The last 3 compounds of the part before open the next one:
48) CCc1ccc(NC(=O)CSc2nc3ccccc3c(=O)n2CCNC(C)=O)cc1
49) CC(C)(Oc1ccc(Cl)cc1)C(=O)Nc1cccc(-c2cn3cccnc3n2)c1
50) COc1ccc(C(=O)N2CCC(c3nc4ccccc4s3)CC2)cc1Cl
51) COc1cccc(CNC(=O)c2cc3c(=O)n(C)c4ccccc4c3n2C)c1
52) CSc1ccc(CCNC(=O)Cn2ncc3c(=O)oc4ccc(C)cc4c32)cc1
53) COC(=O)c1ccc(Cl)cc1NC(=O)N1CC(C)Oc2ccccc21 (stereo not given)
54) CC(C)Cc1nn2c(=O)cc(COC(=O)c3ccccc3NC(=O)C3CCCCC3)nc2s1
55) Cc1cc(N2CCCCC2)nc2ccc(NC(=O)/C=C/c3ccc(OC(C)C)cc3)cc12
Compound	48	49	50	51	52	53	54	55
PV pol inh intensity	102.0	106.0	109.0	112.0	108.0	110.0	107.0	108.0
PV pol inh	104.0	108.0	108.0	110.0	105.0	111.0	103.0	106.0

56) CCN1C(=O)c2ccccc2Sc2ccc(NC(=O)Nc3ccc(Br)c(C)c3)cc21
57) COc1ccc(C)cc1NC(=O)Cn1c(=O)c(C(F)(F)F)nc2ccccc21
58) Cc1cc(OC(C)C(=O)Nc2c(C(=O)c3ccc(F)cc3)oc3ccccc23)ccc1Cl (stereo not given)
59) Cc1ccc2[nH]c(CSc3nnc(NC(=O)COc4ccccc4)s3)cc(=O)c2c1
60) CC(=O)N1CCc2cc(S(=O)(=O)NC(CC(C)C)C(=O)NCCc3ccc(C)cc3)ccc21 (stereo not given)
Compound	56	57	58	59	60
PV pol inh intensity	111.0	117.0	103.0	110.0	111.0
PV pol inh	104.0	115.0	104.0	109.0	107.0

61) CCc1cccc2c(-c3ccccc3)nc(SCC(=O)Nc3ccccc3OC)nc12
62) Cc1cccc(NC(=O)CSc2nc3c(oc4ccccc43)c(=O)n2-c2ccc(F)cc2)c1
63) COc1cccc(CN2C(=O)CN(C3CCCCC3)C(=O)C2c2ccc(OC(C)C)c(OC)c2)c1 (stereo not given)
64) Cc1cccc(CNC(=O)CS(=O)(=O)c2cccc3nsnc23)c1
65) CCCCc1nn2c(=O)cc(COC(=O)Cc3ccccc3)nc2s1
Compound	61	62	63	64	65
PV pol inh intensity	103.0	111.0	109.0	109.0	110.0
PV pol inh	112.0	104.0	107.0	107.0	105.0

66) CSc1nn(Cc2ccc(F)cc2)c(N)c1S(=O)(=O)c1ccc(Cl)cc1
67) O=C(c1ccc(F)cc1)n1nc(-c2ccccc2)nc1NCc1ccc(F)cc1
68) O=C(CSc1n[nH]c(-c2ccccc2Cl)n1)NCCCc1ccccc1
69) COc1ccccc1N(CC(=O)NCCSCc1ccccc1)S(=O)(=O)c1ccc(C)cc1
70) CCc1ccccc1NC(=O)Cn1c(=O)n(-c2ccc(C)cc2)c(=O)c2c1c1cc(C)ccc1n2C
Compound	66	67	68	69	70
PV pol inh intensity	115.0	107.0	107.0	102.0	112.0
PV pol inh	110.0	102.0	107.0	102.0	109.0

71) O=C(Nc1ccc(F)cc1Cl)C1Cc2ccccc2N1C(=O)c1ccccc1 (stereo not given)
72) Cc1ccc(-c2noc(CN(C(=O)c3ccc(C(C)(C)C)cc3)C(C)C)n2)cc1
73) Cc1c(Cl)ccc2sc(N3CCN(C(=O)C4CC4)CC3)nc12
74) Cc1ccc(NC(=O)CCNS(=O)(=O)c2ccc3c(c2)CCN3C(=O)C2CC2)c(Cl)c1
75) Cc1sc(-n2cccc2)c(C(C)NC(=O)Nc2ccccc2Cl)c1C (stereo not given)
Compound	71	72	73	74	75
PV pol inh intensity	109.0	108.0	112.0	113.0	112.0
PV pol inh	106.0	107.0	107.0	105.0	109.0

Entries listed so far containing a tert-butyl group (four):
1) Cc1ccccc1-c1nn2c(=O)cc(CN3CCN(C(=O)c4ccc(C(C)(C)C)cc4)CC3)nc2s1
41) CC(C)(C)C1CCc2c(sc3nc(-c4cc5cc(Br)ccc5oc4=O)[nH]c(=O)c23)C1 (stereo not given)
46) CCOC(=O)c1cc2c(=O)n3ccccc3nc2n(CC2CCCO2)c1=NC(=O)c1ccc(C(C)(C)C)cc1 (stereo not given)
72) Cc1ccc(-c2noc(CN(C(=O)c3ccc(C(C)(C)C)cc3)C(C)C)n2)cc1
Compound	1	41	46	72
PV pol inh intensity	107.0	103.0	110.0	108.0
PV pol inh	105.0	99.0	109.0	107.0

Other records follow:
76) CCOc1ccc(N(CC(=O)NCc2ccc(C)cc2)S(=O)(=O)c2c(C)noc2C)cc1
77) CC(=O)c1ccc(NC(=O)c2nc3ccccc3nc2N2CCCCC2)cc1
78) Cc1ccc(NC(=O)c2cc(S(=O)(=O)N3CCOCC3)c(Cl)cc2Cl)cc1
79) O=C(CN1C(=O)COc2ccccc21)NCCc1ccc(Cl)cc1
80) C=C(C)CSc1nc(-c2ccccc2)cc(-c2ccc(OC)cc2)c1C#N
Compound	76	77	78	79	80
PV pol inh intensity	115.0	106.0	110.0	109.0	105.0
PV pol inh	109.0	111.0	103.0	110.0	104.0

81) CCOC(=O)c1cccc(NC(=O)CCc2c(C)nn(-c3ccc(N4CCOCC4)nn3)c2C)c1
82) COc1ccc(S(=O)(=O)NCCc2csc(-c3ccc(F)cc3)n2)cc1
83) Cc1nn(C(=O)c2ccccc2F)c(C)c1S(=O)(=O)N1CCOCC1
84) Clc1ccc(CSc2nc(NCCc3ccccc3)c3ccccc3n2)cc1
85) O=c1[nH]c2ccc(NCc3ccc(-c4ccc(F)cc4)o3)cc2[nH]1
86) CCN(CC)c1ccc(C(=O)NCc2ccc3c(c2)CCN3C(=O)c2ccc(F)cc2)cc1
87) O=C(Cc1ccc(-c2ccccc2)cc1)NCCS(=O)(=O)N1CCN(c2ccc(F)cc2)CC1
88) COc1ccc(NC(=O)c2oc3ccc(S(=O)(=O)N4CCCCC4)cc3c2C)cc1
Compound	81	82	83	84	85	86	87	88
PV pol inh intensity	99.0	111.0	105.0	114.0	109.0	105.0	105.0	112.0
PV pol inh	103.0	107.0	104.0	108.0	111.0	106.0	104.0	110.0

The list is partial, so the mix of outcomes need not match the whole.
